Assay outcomes deposited in PubChem by Broad Institute.
HIV Env fusion: HIV envelope-mediated fusion inhibition | actives 1.1% (n = 360,000) | AID 651610 | HeLa-JRFL Env/CEM21 cell fusion, luciferase | inhibition, % at 12.3 µM;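 active = mean replicate inhibition score of at least 50 and every replicate individually at or above 50; inconclusive = only one of the two criteria met; inactive = mean below 50 and not all replicates reaching 50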;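 also: 0% = plate neutral controls and 100% = maraviroc near 300 nM; one replicate is shown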
Yeast UUG start: yeast start codon fidelity modulation; S. cerevisiae UUG-firefly luciferase reporter, luminescence/redox ratio; activity score, % at 18.7 µM; actives 0.13% (n = 350,000); AID 602363;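 active = replicate mean at a twofold rise or more, about +100% in these data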;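 also: firefly luciferase made from a UUG start codon reports start codon fidelity; reporter light over untreated wells divided by growth signal over untreated wells; some hits fall short of that in this replicate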
Active calls of the source: *; ? = inconclusive; [ ] = remark or other dose. The list is partial; the hit share may differ from the screen's.

SMILES	HIV Env fusion	Yeast UUG start
C[C@@H]1CN([C@@H](C)CO)C(=O)c2cc(NC(=O)Nc3cccc4ccccc34)ccc2O[C@@H](C)CCCCO[C@@H]1CN(C)S(=O)(=O)c1cccs1	9[16.7 µM]	-6
CNC(=O)C[C@@H]1CC[C@H]2[C@H](COc3ccc(NC(=O)c4ccc(F)c(F)c4)cc3C(=O)N2C)O1	4[16.7 µM]	18
COc1ccccc1CNC(=O)C[C@@H]1CC[C@@H](NC(=O)CC2CC2)[C@@H](CO)O1	-9[16.7 µM]	-11
CCCC#Cc1cnc2c(c1)C(=O)N([C@@H](C)CO)C[C@@H](C)[C@H](CN(C)C(=O)C1CCC1)O2	0[16.7 µM]	9
C[C@H](CO)N1C[C@H](C)[C@@H](CN(C)C(=O)CCCN(C)C)OCCCC[C@H](C)Oc2ccc(NS(=O)(=O)c3cn(C)cn3)cc2C1=O	-5[16.7 µM]	12
COc1ccccc1C#Cc1ccc2c(c1)O[C@@H](CN(C)C(C)=O)[C@H](C)CN([C@@H](C)CO)S2(=O)=O	-18[16.7 µM]	34
CCCNC(=O)Nc1ccc2c(c1)C(=O)N(C)[C@H]1CC[C@H](CC(=O)NC3CCC3)O[C@@H]1CO2	-2[16.7 µM]	2
N#C[C@@H]1[C@H](c2ccc(C#CCC3CCCC3)cc2)[C@@H](CO)N1C(=O)CN1CCOCC1	-6[16.7 µM]	0
C[C@@H]1CCCCO[C@@H](CN(C)C(=O)CCC(F)(F)F)[C@H](C)CN([C@H](C)CO)C(=O)c2cc(NS(=O)(=O)c3ccccc3)ccc2O1	-12[16.7 µM]	18
Cc1noc(C)c1NC(=O)Nc1ccc2c(c1)C(=O)N([C@H](C)CO)C[C@H](C)[C@@H](CN(C)Cc1ccc(Cl)c(Cl)c1)O2	-12[16.7 µM]	-10
CCS(=O)(=O)Nc1ccc2c(c1)C(=O)N(C)[C@@H]1CC[C@@H](CC(=O)Nc3ccccc3)O[C@H]1CO2	-5[16.7 µM]	-3
O=C(C[C@@H]1CC[C@@H]2[C@H](COC[C@@H](O)CN2C(=O)Nc2ccc(F)cc2)O1)NCCc1ccccc1	9[16.7 µM]	7
C[C@@H]1CN([C@H](C)CO)C(=O)c2cc(-c3ccncc3)cnc2O[C@@H]1CN(C)C(=O)Cc1ccccn1	-20[16.7 µM]	-24
Cc1noc(C)c1NC(=O)Nc1cccc2c1O[C@H](CN(C)C(=O)Nc1c(C)noc1C)[C@H](C)CN([C@H](C)CO)C2=O	-3[16.7 µM]	9
CO[C@H]1CN(C)C(=O)c2cc(NC(C)=O)ccc2OC[C@H](C)N(C(=O)c2cccnc2)C[C@H]1C	-21[16.7 µM]	-4
C[C@H](CO)N1C[C@H](C)[C@@H](CN(C)S(=O)(=O)c2ccccc2)OCCCC[C@H](C)Oc2ccc(NC(=O)Nc3ccccc3)cc2C1=O	-36[16.7 µM]	-11
Cc1noc(C)c1NC(=O)Nc1cccc2c1O[C@H](CN(C)C(=O)Nc1ccc(C(F)(F)F)cc1)[C@@H](C)CN([C@@H](C)CO)C2=O	25[16.7 µM]	-7
Cc1ccc(S(=O)(=O)Nc2ccc3c(c2)C(=O)N([C@@H](C)CO)C[C@@H](C)[C@H](CN(C)S(C)(=O)=O)OCCCC[C@@H](C)O3)cc1	0[16.7 µM]	15
Cc1ccc(S(=O)(=O)N[C@H]2CC[C@@H](CCNC(=O)C3CCCCC3)O[C@@H]2CO)cc1	-1[16.7 µM]	-3
C[C@@H]1CN([C@@H](C)CO)C(=O)c2cccc(NC(=O)Nc3ccc(C(F)(F)F)cc3)c2O[C@H]1CN(C)C(=O)Nc1ccccc1	-1[16.7 µM]	10
CO[C@H]1CN(C)C(=O)c2ccc(NC(=O)C3CCC3)cc2OC[C@@H](C)N(C(=O)NC(C)C)C[C@H]1C	15[16.7 µM]	31
C[C@@H]1CN([C@@H](C)CO)C(=O)c2cc(C#CC3CC3)cnc2O[C@H]1CN(C)C	-20[16.7 µM]	-2
O=C(Nc1ccc(F)cc1)N[C@H]1CC[C@H](CC(=O)N2CCCCC2)O[C@@H]1CO	-14[16.7 µM]	-8
COc1ccc(NC(=O)N[C@H]2CC[C@H](CCn3cc(-c4ccccn4)nn3)O[C@H]2CO)cc1	10[16.7 µM]	-24
C[C@H]1CN([C@@H](C)CO)C(=O)c2cccc(NS(C)(=O)=O)c2O[C@@H]1CN(C)CC1CCCCC1	3[16.7 µM]	-10

By substructure: the compounds so far containing an aryl methoxy group (3)
SMILES	HIV Env fusion	Yeast UUG start
COc1ccccc1CNC(=O)C[C@@H]1CC[C@@H](NC(=O)CC2CC2)[C@@H](CO)O1	-9[16.7 µM]	-11
COc1ccccc1C#Cc1ccc2c(c1)O[C@@H](CN(C)C(C)=O)[C@H](C)CN([C@@H](C)CO)S2(=O)=O	-18[16.7 µM]	34
COc1ccc(NC(=O)N[C@H]2CC[C@H](CCn3cc(-c4ccccn4)nn3)O[C@H]2CO)cc1	10[16.7 µM]	-24

New compounds follow.
SMILES	HIV Env fusion	Yeast UUG start
CN(C)CC(=O)N1[C@@H](C#N)[C@H](c2ccc(-c3ccc(C(=O)N(C)C)cc3)cc2)[C@@H]1CO	-20[16.7 µM]	10
COc1ccccc1NC(=O)N[C@@H]1CC[C@H](CCn2cc(-c3cccnc3)nn2)O[C@@H]1CO	17[16.7 µM]	-13
C[C@@H]1CN([C@H](C)CO)C(=O)c2cc(C#Cc3ccccc3)cnc2O[C@H]1CN(C)CC1CCOCC1	5[16.7 µM]	3
COc1ccc(NC(=O)Nc2ccc3c(c2)C(=O)N([C@H](C)CO)C[C@@H](C)[C@@H](CN(C)C(=O)CCC(F)(F)F)OCCCC[C@H](C)O3)cc1	-3[16.7 µM]	18
C[C@@H]1CCCCO[C@@H](CN(C)Cc2ccc(C(F)(F)F)cc2)[C@H](C)CN([C@H](C)CO)C(=O)c2cc(NS(=O)(=O)c3ccccc3)ccc2O1	22[16.7 µM]	11
C[C@H](CO)N1C[C@H](C)[C@H](CN(C)Cc2cccnc2)Oc2ncc(C3=CCCC3)cc2C1=O	1[16.7 µM]	-3
C[C@@H]1CN([C@@H](C)CO)S(=O)(=O)c2ccc(-c3ccccc3)cc2O[C@@H]1CN(C)C(=O)CC1CC1	-3[16.7 µM]	5
COc1ccc(NC(=O)N(C)C[C@@H]2OCCCC[C@H](C)Oc3ccc(NS(=O)(=O)c4ccc(Cl)cc4)cc3C(=O)N([C@H](C)CO)C[C@H]2C)cc1	-14[16.7 µM]	-6
C[C@@H]1CN([C@@H](C)CO)C(=O)c2cc(NS(C)(=O)=O)ccc2O[C@@H](C)CCCCO[C@H]1CN(C)C(=O)C1CCCCC1	10[16.7 µM]	3
CCCC#Cc1ccc2c(c1)O[C@H](CN(C)C(=O)CC1CC1)[C@@H](C)CN([C@H](C)CO)S2(=O)=O	-36[16.7 µM]	4
O=C(N[C@@H]1CC[C@H](CC(=O)N2CCN(c3ccccc3)CC2)O[C@H]1CO)c1ccncc1	-4[16.7 µM]	-25
COc1cccc(-c2cnc3c(c2)C(=O)N([C@@H](C)CO)C[C@@H](C)[C@@H](CN(C)Cc2ccncc2)O3)c1	1[16.7 µM]	-4
CN(C)CCCNC(=O)C[C@H]1CC[C@@H]2[C@@H](COc3ccc(NC(=O)c4cccc(F)c4)cc3C(=O)N2C)O1	-20[16.7 µM]	-2
C[C@H]1CN([C@@H](C)CO)C(=O)c2cccc(NC(=O)Nc3cccc4ccccc34)c2O[C@H]1CN(C)C(=O)Nc1cccc2ccccc12	19[16.7 µM]	2
CNC[C@H]1Oc2ccc(NC(=O)C3CC3)cc2C(=O)N([C@H](C)CO)C[C@@H]1C	-4[16.7 µM]	-14
O=C(O)[C@]1(Cc2ccccc2)N=C(c2ccc(OCCCO)cc2)O[C@@H]1c1ccccc1	10[16.7 µM]	8
N#C[C@@H]1[C@H](c2ccc(C#CCC3CCCC3)cc2)[C@H](CO)N1C(=O)c1ccccn1	35[16.7 µM]	-8
COc1ccc(S(=O)(=O)N(C)C[C@@H]2Oc3ccc(NS(=O)(=O)c4cn(C)cn4)cc3CC(=O)N([C@@H](C)CO)C[C@H]2C)cc1	-10[16.7 µM]	-16
COc1ccc(S(=O)(=O)Nc2cccc3c2O[C@H](CN(C)S(=O)(=O)c2ccc(C)cc2)[C@H](C)CN([C@H](C)CO)C3=O)cc1	-19[16.7 µM]	3
C[C@@H]1CCCCO[C@H](CN(C)Cc2ccc(Cl)c(Cl)c2)[C@@H](C)CN([C@@H](C)CO)C(=O)c2cc(NS(=O)(=O)c3ccccc3)ccc2O1	36[16.7 µM]	13
C[C@@H]1CN([C@@H](C)CO)C(=O)c2cc(NC(=O)Cc3cn(C)c4ccccc34)ccc2O[C@H]1CN(C)C(=O)NC1CCCCC1	16[16.7 µM]	2
C[C@@H]1CN([C@H](C)CO)C(=O)c2cc(NC(=O)CCCN(C)C)ccc2O[C@@H](C)CCCCO[C@H]1CN(C)C(=O)Nc1ccccc1	-19[16.7 µM]	-4
C[C@H](CO)N1C[C@H](C)[C@H](CN(C)Cc2ccc(C(=O)O)cc2)Oc2ccc(NC(=O)Cc3cn(C)c4ccccc34)cc2CC1=O	-8[16.7 µM]	-8
COc1cccc(C(=O)Nc2ccc3c(c2)C(=O)N(C)[C@H]2CC[C@H](CC(=O)NCc4ccc(F)cc4)O[C@H]2CO3)c1	?	3
C[C@H](CO)N1C[C@H](C)[C@H](CN(C)Cc2ccc(Oc3ccccc3)cc2)Oc2ccc(NC(=O)CCCCCC(=O)Nc3ccccc3N)cc2CC1=O	23[16.7 µM]	3

Compound profiles, as listed above. Order of values: HIV Env fusion, Yeast UUG start
`C[C@H](CO)N1C[C@H](C)[C@H](CN(C)Cc2ccc(Oc3ccccc3)cc2)Oc2ccc(NC(=O)CCCCCC(=O)Nc3ccccc3N)cc2CC1=O` across the screens: 23[16.7 µM], 3
`N#C[C@@H]1[C@H](c2ccc(C#CCC3CCCC3)cc2)[C@H](CO)N1C(=O)c1ccccn1` across the screens: 35[16.7 µM], -8
`O=C(N[C@@H]1CC[C@H](CC(=O)N2CCN(c3ccccc3)CC2)O[C@H]1CO)c1ccncc1` across the screens: -4[16.7 µM], -25

Next entries follow.
SMILES	HIV Env fusion	Yeast UUG start
COCC#Cc1ccc2c(c1)O[C@H](CN(C)CC1CC1)[C@H](C)CN([C@@H](C)CO)S2(=O)=O	8[16.7 µM]	3
CCC(=O)N[C@H]1CC[C@@H](CCNC(=O)Nc2ccc(C(F)(F)F)cc2)O[C@@H]1CO	-2[16.7 µM]	0
COCC(=O)N(C)C[C@H]1Oc2cc(Br)ccc2S(=O)(=O)N([C@@H](C)CO)C[C@@H]1C	4[16.7 µM]	2
C[C@@H](NC(=O)C[C@H]1CC[C@@H](NC(=O)C2CCC2)[C@H](CO)O1)c1ccccc1	-23[16.7 µM]	-9
COc1ccc(S(=O)(=O)N(C)C[C@@H]2OCCCC[C@@H](C)Oc3ccc(NC(=O)NC4CCCCC4)cc3C(=O)N([C@@H](C)CO)C[C@@H]2C)cc1	22[16.7 µM]	-2
Cc1noc(C)c1NC(=O)Nc1cccc2c1O[C@@H](CN(C)C(=O)Nc1ccc(C(F)(F)F)cc1)[C@@H](C)CN([C@H](C)CO)C2=O	-36[16.7 µM]	-8
C[C@@H]1CN([C@@H](C)CO)C(=O)c2cc(NS(=O)(=O)c3ccc(F)cc3)ccc2O[C@@H](C)CCCCO[C@@H]1CN(C)C(=O)Cc1ccccc1	-1[16.7 µM]	9
O=C(NC1CCCCC1)N[C@H]1CC[C@@H](CCNS(=O)(=O)c2ccc(Cl)cc2)O[C@@H]1CO	14[16.7 µM]	9
C[C@@H]1CCCCO[C@H](CN(C)S(=O)(=O)c2ccc(F)cc2)[C@@H](C)CN([C@H](C)CO)C(=O)c2cc(NS(=O)(=O)c3cn(C)cn3)ccc2O1	-7[16.7 µM]	-3
C[C@@H]1CN([C@@H](C)CO)C(=O)c2cc(C#CCc3ccccc3)cnc2O[C@@H]1CN(C)C(=O)C1CCC1	-15[16.7 µM]	-3
C[C@H]1CCCCO[C@H](CN(C)C(=O)Nc2cccc3ccccc23)[C@@H](C)CN([C@@H](C)CO)C(=O)c2cc(NC(=O)c3ccncc3)ccc2O1	14[16.7 µM]	-4
C[C@@H]1CN([C@H](C)CO)S(=O)(=O)c2ccc(C#CC3CCCC3)cc2O[C@@H]1CN(C)C(=O)Nc1cc(F)ccc1F	-20[16.7 µM]	-5
C[C@H](CO)N1C[C@H](C)[C@@H](CN(C)S(C)(=O)=O)Oc2c(NC(=O)C3CCOCC3)cccc2C1=O	8[16.7 µM]	-29
COc1ccc(NC(=O)N(C)C[C@@H]2OCCCC[C@H](C)Oc3ccc(NC(=O)c4ccccc4)cc3C(=O)N([C@H](C)CO)C[C@@H]2C)cc1	-15[16.7 µM]	9
O=S(=O)(N[C@H]1CC[C@H](CCn2cc(C3CC3)nn2)O[C@H]1CO)c1ccc(Cl)cc1	9[16.7 µM]	-10
C[C@@H]1CN([C@H](C)CO)C(=O)c2cc(NS(=O)(=O)c3ccccc3)ccc2O[C@H]1CN(C)Cc1ccc(C(=O)O)cc1	11[16.7 µM]	22
C[C@@H]1CN([C@@H](C)CO)C(=O)Cc2cc(NC(=O)Nc3cccc4ccccc34)ccc2O[C@@H]1CN(C)S(=O)(=O)c1ccccc1	-6[16.7 µM]	-14
O=C(O)C[C@H]1CC[C@@H](NC(=O)Nc2ccccc2)[C@@H](CO)O1	-26[16.7 µM]	-6
C[C@@H]1CN([C@H](C)CO)C(=O)Cc2cc(NC(=O)Nc3ccc(F)cc3)ccc2O[C@@H]1CN(C)S(=O)(=O)c1cccs1	3[16.7 µM]	-1
